High-throughput results as filed in PubChem BioAssay.
HCMV NEC inh: inhibitors of HCMV UL50-UL53 interaction, biochemical, HTRF; 190,000 tested, 0.15% active; normalized percent inhibition; inhibition, % (test concentration not listed);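 active = both replicates at 50% or more, plus weaker picks with an unusually low signal ratio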;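 note: stock transfer was 100 nL into about 20 µL; 0% = negative control wells and 100% = wells with untagged competitor protein; inactives centre near -12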
Sa growth inh: S. aureus growth inhibition at 42 and 30 °C, primary screen, LtaS inhibitor project, RN4220, two temperatures | OD600, 20 h, 42 °C; stronger effect = lower value | relative growth, % (test concentration not listed) | 170,000 tested, 0.53% active | AID 720641, 2013;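 active = growth at 42 °C up to 50% and 20 or more points under that at 30 °C, or under 10% at both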;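 note: 300 nL library stock went into each well; scaled to the means of positive and negative controls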
GIV-Gai inh: inhibitors of GIV peptide binding to Galpha-i3, primary screen, biochemical, fluorescence polarization, FITC-GIV GBA peptide, rat Galphai3 | Guanine nucleotide-binding protein G(i) subunit alpha-3 (Rattus norvegicus), P08753 | 90 min; stronger effect = lower value; scaled: aluminum fluoride 0%, vehicle 100% | percent of control (FP), % (test concentration not listed) | 210,000 tested, 0.42% active;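 active = replicate mean at 85% of control or lower, very high polarization wells dropped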;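 note: wells of about 15 µL received 100 nL stock; the first replicate is given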
Target sequence (P08753 whole entry, looked up): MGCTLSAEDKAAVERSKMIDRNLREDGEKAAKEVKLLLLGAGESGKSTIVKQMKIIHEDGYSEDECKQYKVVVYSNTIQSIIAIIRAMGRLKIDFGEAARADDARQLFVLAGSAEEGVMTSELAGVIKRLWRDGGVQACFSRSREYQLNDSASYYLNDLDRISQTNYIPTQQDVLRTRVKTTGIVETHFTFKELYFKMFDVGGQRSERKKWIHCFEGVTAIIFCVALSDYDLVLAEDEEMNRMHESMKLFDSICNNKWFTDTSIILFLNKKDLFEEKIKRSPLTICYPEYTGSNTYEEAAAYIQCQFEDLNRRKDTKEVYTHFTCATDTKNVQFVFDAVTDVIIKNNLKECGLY
Sa growth inh second temp: further read-out of Sa growth inh, marked with its call; relative growth, %; measured here: growth at 30 °C;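 optical density after 20 h as mean of two plates; 100% = untreated growth and lower means inhibition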
Starred values were filed as active, the others as inactive; · = no result given; & = joins results of further samples.

structure	HCMV NEC inh	Sa growth inh	Sa growth inh second temp	GIV-Gai inh
CN1CCN(C(CNC(=O)c2ccc(F)cc2)c2ccc3c(c2)OCO3)CC1 (configuration not stated)	·	101	85	96
CCOC(=O)CSc1nc2sccn2c1C=Nc1cc(Cl)cc(Cl)c1	-10	92	95	103
Cc1nc2cccnc2n1-c1ccc(CC(=O)NCCN2CCOCC2)cc1	-16	116	99	105
Cc1cc(C)c2c(=O)n(C(=O)c3ccco3)sc2n1	28	88	90	101
O=C(Nc1ccc2nc(NC(=O)c3ccccc3Cl)sc2c1)c1ccccc1Cl	-11	·	·	103
Cc1cc(C)cc(-n2nnc(-c3nsc(NC(=O)c4ccccc4Cl)n3)c2C)c1	-13	98	76	102
N#CCCNc1ccccc1C(=O)O	-13	91	92	98
Cc1c(Cl)cccc1NC(=O)C(=O)NCC(c1cccnc1)N1CCN(c2ccccc2)CC1 (configuration not stated)	7	86	95	101
C=CCNC(=O)C(C)Oc1ccccc1 (configuration not stated)	-13	99	102	106
CC(C)CCn1c(=O)c2ccccc2n2c(CN(C)Cc3ccccc3)nnc12	-24	50	69	·
O=C1COc2ccc(NC(=O)c3ccc(Br)cc3)cc2N1	-16	·	·	105
CCCC(=O)Nc1cc(N2CCn3c(nc4ccccc43)C2)ccc1C	-10	·	·	106
Cc1cc2c3c([nH]c2cc1S(=O)(=O)N(Cc1ccco1)C1CCCCC1)CCCC3=O	7	101	88	106
CCC(CC)C(=O)N1CC(C)C(=O)Nc2ccccc21 (configuration not stated)	17	·	·	98
O=S(=O)(NC(=S)NC1CCCCC1)c1ccccc1	-22	98	80	98
c1ccc(-c2csc(Cc3c[nH]c4ccccc34)n2)cc1	·	100	96	105
Cc1cccc(-c2noc(CSc3ccc(-c4ccc5c(c4)OCO5)nn3)n2)c1	20	·	·	107
Cc1cc(C)nc(SC(C)C(=O)Nc2ccccc2C#N)n1 (configuration not stated)	-4	95	100	100
Cc1ccccc1COC(=O)c1ccc(-c2nnn(Cc3ccccc3F)n2)cc1	-4	113	95	110
O=C(OOC(=O)c1ccccc1)c1ccccc1	-21	96	92	·
CN(c1ccccc1)S(=O)(=O)c1ccc(Cl)c(C(=O)N2CCOCC2)c1	2	90	93	·
c1cnc(N2CCN(c3nn4nnnc4c4ccccc34)CC2)nc1	-13	·	·	97
CC1CN(C(=O)N2CCC(C(=O)NC3CCCCCC3)CC2)c2cc(Cl)ccc2O1 (configuration not stated)	-16	89	82	101
CN(C)c1ccc(C2NC(=S)NC3=C2CCc2ccccc23)cc1 (configuration not stated)	-25	114	83	111
Cc1onc(-c2c(Cl)cccc2Cl)c1C(=O)N(C)c1nnc(C(F)(F)F)s1	-19	113	95	111
CN1C(=O)Cc2cc(S(=O)(=O)CCC(=O)Nc3ccc(Cl)cc3)ccc21	·	97	88	103
COc1ccc(-c2cn3cccnc3n2)cc1NC(=O)c1c(F)cccc1F	·	94	80	107
Cn1c(C(=O)N2CCCc3ccccc32)cc2c(=O)n3ccccc3nc21	-35	73	92	·
COc1ccc(NC(=O)COc2ccc(C)cc2)cc1	·	109	100	105
CCCc1ccc(NC(=O)C2CCN(c3cnccn3)CC2)cc1	10	107	97	101

Overlap with the part before: 3 compounds, then new ones.
structure	HCMV NEC inh	Sa growth inh	Sa growth inh second temp	GIV-Gai inh
Cn1c(C(=O)N2CCCc3ccccc32)cc2c(=O)n3ccccc3nc21	-35	73	92	·
COc1ccc(NC(=O)COc2ccc(C)cc2)cc1	·	109	100	105
CCCc1ccc(NC(=O)C2CCN(c3cnccn3)CC2)cc1	10	107	97	101
C=CCN1C(=O)C2C(C(=O)NC)C3C=CC2(O3)C1C(=O)NC1CCCCC1 (configuration not stated)	12	97	112	100
COCCn1c(O)c(/C=N/N=C2/C(=O)N(C)c3ccccc32)c(=O)[nH]c1=S	-29	106	96	·
CCC1(c2cccc(OC)c2)CCCCNC1=O (configuration not stated)	-84	94	95	102
CCOC(=O)c1cc(-c2ccccc2)n(-c2cccc(C(=O)NC(C)CC)c2)c1C (configuration not stated)	·	99	97	100
CCOc1ccc(C(=O)Nc2ccc3oc(-c4cccc5ccccc45)nc3c2)cc1	-44	94	89	108
O=C(c1cccs1)N1CCCCC1	-6	87	82	·
Cn1ccsc1=NC(=O)c1cc(Cl)c2c(c1)OCCCO2	-4	104	57	·
CC1(C)N=C(NS(=O)(=O)c2cc(C(F)(F)F)cc(C(F)(F)F)c2)N(c2ccccc2)O1	-8	110	95	98
O=C1CCC(C(=O)NCc2ccccn2)=NN1	-24	86	90	·
COc1ccc(CNC(=O)c2cnc3sc(N4CCCCC4)nn3c2=O)cc1	10	·	·	100
COc1cc2c(cc1OC)n(CC(=O)c1ccc(C)cc1C)c(=O)n1nc(CCn3nc(C)cc3C)nc21	·	127	76	101&98
Cc1ccc(-c2nnc(SCC(=O)NCCC(C)C)nc2-c2ccc(C)cc2)cc1	·	114	95	110
Cc1cccc(N/C(=N\S(=O)(=O)c2ccc(Cl)cc2)Nc2nc(C)cc(C)n2)c1	·	101	118	102
COc1cccc(C(=O)Cn2c(=O)n(CCc3ccccc3)c(=O)c3cc(OC)c(OC)cc32)c1	·	102	95	102
N#Cc1cc(C(=O)c2cccs2)c(C(F)(F)F)nc1SCc1ccccc1	-9	90	100	·
Cn1c(SCC(=O)N/N=C/c2ccccc2)nc2ccccc21	-17	83	89	100
Cc1ccc2c(c1)C(=O)CCCO2	-11	95	100	·
COc1ccc(CC(=O)N2C(=O)c3ccc(N)cc3C2=O)cc1OC	-74	86	84	·
Cc1cccc(C(=O)Nc2cccc(C(=O)OCc3cc(=O)n4ccsc4n3)c2)c1	·	92	97	102
Cc1cc(C)cc(N=C2NC(=O)/C(=C/c3cccc([N+](=O)[O-])c3)S2)c1	-10	·	·	107
CCC(C)NC(=O)C1=CC(c2ccc3c(c2)OCO3)=NS(=O)(=O)N1C (configuration not stated)	-40	119	85	106
O=C(NCc1ccccc1)c1ccc(NC(=O)N2CCSc3ncccc32)cc1	·	101	99	106
CC1(NS(=O)(=O)c2ccccc2)CCS(=O)(=O)C1 (configuration not stated)	-13	105	76	100
CC(C)C(NC(=O)C1CCCCC1)C(=O)N1CCN(c2ccc(F)cc2)CC1 (configuration not stated)	-30	83	80	98
COCc1cc(=O)[nH]c(-c2ccc(C(F)(F)F)cc2)n1	0	107	92	100
CC(C)CN1CC(c2nc3ccccc3n2CCCN(C)C)CC1=O (configuration not stated)	-12	89	91	98
Nc1cc(=O)nc(SCC(=O)Nc2ccc(F)cc2)n1-c1ccc(Cl)cc1	-10	94	79	101
CCCSc1ncc(Cl)c(C(=O)Nc2sc3c(c2C(N)=O)CCCC3)n1	-3	96	91	104
CCc1cccc(C)c1NC(=O)COCc1cc(-c2ccc3c(c2)OCO3)on1	·	100	66	101
CCN1CCC(N(Cc2ccc3c(c2)OCO3)C(=O)Nc2ccccc2OC)CC1	·	123	94	102

Other compounds follow:
structure	HCMV NEC inh	Sa growth inh	Sa growth inh second temp	GIV-Gai inh
Oc1c(C(c2ccc(Cl)cc2Cl)N2CCOCC2)sc2nc(-c3ccco3)nn12 (configuration not stated)	·	136	98	98
CCCC(=O)NCC(c1ccc2c(c1)OCO2)N1CCOCC1 (configuration not stated)	·	106	93	96
Cc1sc(-c2noc(C3CCC3)n2)cc1NC(=O)C1CC1	-18	·	·	105
O=C(NCC(c1ccc(F)cc1)N1CCOCC1)C(c1ccccc1)c1ccccc1 (configuration not stated)	-9	108	83	·
O=C1c2ccccc2C(=O)N1Cc1ccc(Cl)cc1	-39	104	99	·
S=c1[nH]nc(-c2ccccc2)o1	-29&-10	78&79	79&79	105
Cc1ccc(NC(=O)C(=O)NCC2(c3ccccc3)CCCC2)cc1Cl	-21	103	95	104
Cc1ccc2c(c1)c1c(c(=O)n(-c3ccccc3)c(=O)n1CC(=O)NCC1CCCO1)n2C (configuration not stated)	·	115	89	107
CCC(C)(C(=O)NC1CCCCC1)N(C(=O)c1ccccn1)c1ccccc1 (configuration not stated)	·	101	90	103
C=CCn1c(C)cc(C(=O)CSCc2nc3sc(C)c(C)c3c(=O)[nH]2)c1C	26	80	93	·
CCOC(=O)C1=C(C)N=c2s/c(=C3\C(=O)N(C(C)=O)c4ccccc43)c(=O)n2C1c1ccc(OC)cc1 (configuration not stated)	-2	·	·	108
CC1CN(C(=O)c2cc3n(n2)C(C(F)(F)F)CC(c2ccco2)N3)CC(C)O1 (configuration not stated)	-5	119	107	105
CCCN(c1nc2nc(C)cc(C)n2n1)S(=O)(=O)c1ccc(Cl)cc1	-24	·	·	99
CCOc1ccc(Sc2cc(C(=O)N3CCCC3)c3ccccc3n2)cc1	·	107	81	101
O=C(NC1CCCCC1)c1ccc2c(c1)N(Cc1ccccc1)C(=O)c1ccccc1S2	·	132	90	102
CC(C)CNC(=O)c1cnc2n(c1=O)CCS2	-32	82	84	103
CN(C)CCN(Cc1ccco1)C(=O)c1cc2c(s1)-c1ccccc1OC2	-47	124	75	102
O=C(O)CCc1nc2ccccc2n(CCc2ccccc2)c1=O	-46	124	80	·
Cc1ccc(C)c(N=C2N(C)CC(=O)N2Cc2cccnc2)c1	-5	89	94	·
Cc1nn(-c2ccc(N3CCCC3)nn2)c(C)c1CCC(=O)N1CCN(c2ncccn2)CC1	-76	·	·	102
Cc1cc(C(=O)Nc2cccc(OC(C)C)c2)c(C)o1	-5	81	76	109
Cc1cc2ncn(CC(C)C)c2cc1C	-11	141	91	105
CC1=CC(C)=Nc2ccc(C)cc2N1	-49	91	80	108
Cc1ccc(S(=O)(=O)/N=C2\NC(=O)CS2)cc1	-4	106	99	109
O=C(CC1CCCC1)OCc1ccc(Cl)cc1	9	108	100	·
CCNc1nc(SC)ncc1F	-20	102	76	100
O=C(Cn1nc(-c2ccccc2)ccc1=O)Nc1ccc(N2CCN(C(=O)c3ccccc3)CC2)cc1	-16	92	69	112
CC1=C(c2ccc(C)c(C)c2)S(=O)(=O)NC1=O	·	103	87	102
COc1ccccc1C(=O)N1c2ccccc2NC(=O)CC1C (configuration not stated)	-5	·	·	98
CCCn1c(=O)n(C)c(=O)c2c(SC(C(=O)NC(N)=O)C(C)C)nc(CC(C)C)nc21 (configuration not stated)	-13	90	86	·

(next part)
Order of values: HCMV NEC inh | Sa growth inh | Sa growth inh second temp | GIV-Gai inh
CCCCn1c(SCN2C(=O)c3ccccc3C2=O)nc2cc(S(N)(=O)=O)ccc21
    -37 | 98 | 98 | ·
CCc1nc2onc(C)c2c(=O)n1CC(=O)N1CCCC1
    7 | · | · | 103
CC1(C)CC(=O)c2cnc(NC(=O)CSc3nc4ccccc4o3)nc2C1
    -7 | 109 | 100 | 103
O=C(CSc1c2c(nc3ccc(Cl)cc13)CCCC2)NCCN1CCOCC1
    · | 83 | 86 | 102
Cc1cccc(Cn2c(COc3ccccc3)nc3ccccc32)c1
    -17 | 96 | 87 | 105
Cc1ccccc1-c1nnn(CC(=O)c2ccc(S(=O)(=O)N3CCCC3)cc2)n1
    -34 | 74 | 93 | ·
Cc1ccc(C)c2sc(N3CCN(C(=O)C(C)(C)C)CC3)nc12
    · | 67 | 63 | 97
CN(C(=O)c1nc2ccccc2nc1Cl)C1CCCCC1
    -31 | 81 | 95 | ·
CCOC(=O)c1c(C)oc2nc(C)nc(Nc3cc(C)cc(C)c3)c12
    · | 101 | 97 | 101
O=S(=O)(NCCSCc1ccco1)c1ccc(Br)cc1
    -1 | 90 | 87 | 101
COc1ccc(Cn2c(CCC(=O)Nc3ccc(OC)cc3)nc3cccnc32)cc1
    -43 | · | · | 103
CCCc1nc(NC2CCCCC2)c(C#N)c2c1CCCC2
    · | 86 | 84 | 107
O=C(CSc1ncccn1)N1CCc2ccccc2C1
    -7 | 114 | 80 | 102
Cc1nnc2n1NC(c1ccc(Cl)cc1)C(C(=O)N1CCCCCC1)S2 (configuration not stated)
    -9 | 101 | 90 | 97
O=C(c1cccnc1Cl)N(Cc1ccccc1)Cc1ccccc1
    · | 104 | 70 | 102
CCOC(=O)c1c(S(=O)(=O)N2CCCC(C(=O)NCc3cccc(C)c3)C2)c(C)n(C)c1C (configuration not stated)
    · | 121 | 94 | 99
CC1CC(C)CN(c2ncnc3scc(-c4ccccc4)c23)C1 (configuration not stated)
    · | 85 | 78 | 98

Some values from above:
`CCC(CC)C(=O)N1CC(C)C(=O)Nc2ccccc21` (configuration not stated) in GIV-Gai inh is listed with 98
`O=C(NCC(c1ccc(F)cc1)N1CCOCC1)C(c1ccccc1)c1ccccc1` (configuration not stated) in Sa growth inh second temp is listed with 83
`O=C(Nc1ccc2nc(NC(=O)c3ccccc3Cl)sc2c1)c1ccccc1Cl` in GIV-Gai inh is listed with 103
`c1cnc(N2CCN(c3nn4nnnc4c4ccccc34)CC2)nc1` in HCMV NEC inh is listed with -13
`CCCc1nc(NC2CCCCC2)c(C#N)c2c1CCCC2` in Sa growth inh second temp is listed with 84
